Bioassay records deposited in PubChem BioAssay by several laboratories.
Yeast UUG start: modulators of start codon recognition fidelity in yeast | S. cerevisiae UUG-firefly luciferase reporter, luminescence/redox ratio | activity score, % at 18.7 µM | 350,000 tested, 0.13% active;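 active = replicate mean at a twofold rise or more, about +100% in these data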;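 also: firefly luciferase made from a UUG start codon reports start codon fidelity; reporter light over untreated wells divided by growth signal over untreated wells; some hits fall short of that in this replicate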
Env fusion inh: inhibitors of HIV Env-mediated cell fusion. HeLa-JRFL Env/CEM21 cell fusion, luciferase. inhibition, % at 12.3 µM. 360,000 tested, 1.1% active. AID 651610;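 active = mean replicate inhibition score of at least 50 and every replicate individually at or above 50; inconclusive = only one of the two criteria met; inactive = mean below 50 and not all replicates reaching 50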;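 also: 0% = plate neutral controls and 100% = maraviroc near 300 nM; one replicate is shown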
MT1-MMP act inh: inhibitors of human MT1-MMP activation. HT1080 RFP-PRO-GFP cells, GFP/RFP ratio fluorescence, overnight; percent of plate control window, DMSO zero. AID 651647. 360,000 tested, 0.061% active. GFP/RFP ratio change, % at 20 µM. P50281;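 active = GFP/RFP ratio change of at least 30% with cell ATP level not reduced by more than half and red fluorescence within 50% of control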; also: strong numbers were not always called active
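Assay system: HT1080 cells carrying an RFP-PRO-GFP reporter | Dosing: Single dose of 20 µM compound, 1% DMSO final | Incubation: Cells overnight before dosing, compound overnight, 37 °C, 5% CO2 | Evaluation: GFP/RFP fluorescence ratio | Control set: DMSO and RFP-L50D-GFP cell wells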
CSC inhib: cancer stem cell inhibition; cancer stem cell-like cells viability, luminescence; inhibition, % at 7.5 µM; 300,000 tested, 1.1% active;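 active = mean at 75% or more and at least half the replicates too; inconclusive = mean and replicates disagree; tested in HMLE shEcad cells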;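 also: 0% = median of negative and 100% = median of positive control wells; the first replicate is given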
PABP polyA inh: blocks human PABP binding to poly(A) RNA; inhibition, % at 35 µM; fluorescence polarization; P11940; AID 2014; 290,000 tested, 1% active;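 active = 50% or more with normal probe brightness, or confirmed in later tests; inconclusive = above 50% with abnormal brightness, or retests that disagree; inactive = below 50% or failed in later tests; about a fifth of its hits are not listed in these tables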;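 also: calls also rest on retests at 20 µM and on dose response follow-up; controls were probe without protein and protein plus probe with vehicle; some compounds called inactive have numbers as strong as hits; many hits fall short of the cut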
Target sequence (P11940 whole entry, looked up): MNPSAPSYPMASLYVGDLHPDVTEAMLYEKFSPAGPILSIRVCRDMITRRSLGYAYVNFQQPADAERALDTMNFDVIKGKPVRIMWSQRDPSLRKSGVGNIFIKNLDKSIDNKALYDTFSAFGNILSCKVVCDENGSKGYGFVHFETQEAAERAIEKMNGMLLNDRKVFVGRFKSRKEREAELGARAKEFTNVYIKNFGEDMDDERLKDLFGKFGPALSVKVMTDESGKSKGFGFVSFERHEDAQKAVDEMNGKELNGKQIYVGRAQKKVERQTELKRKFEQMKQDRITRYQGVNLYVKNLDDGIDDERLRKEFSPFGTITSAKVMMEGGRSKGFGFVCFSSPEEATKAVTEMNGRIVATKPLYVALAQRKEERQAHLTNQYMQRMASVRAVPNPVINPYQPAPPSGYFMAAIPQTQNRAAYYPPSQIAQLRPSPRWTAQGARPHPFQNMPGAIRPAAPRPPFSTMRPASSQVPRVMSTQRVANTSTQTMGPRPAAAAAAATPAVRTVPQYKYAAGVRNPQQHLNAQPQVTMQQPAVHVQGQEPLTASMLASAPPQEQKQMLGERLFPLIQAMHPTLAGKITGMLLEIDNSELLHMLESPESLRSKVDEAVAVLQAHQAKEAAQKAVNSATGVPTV
Rce1 inhib: blocks yeast Ras-converting enzyme. calls only. Q03530. AID 2563. 290,000 tested, 0.27% active. yeast membranes, quenched prenylated peptide cleavage fluorescence;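 active = fall in fluorescence gain of 50% or more versus controls, with final raw signal at or below 3038400; inconclusive = same 50% fall but final raw signal above 3038400; inactive = fall in fluorescence gain under 50%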;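 also: plate controls were neutral control wells for no effect and wells lacking membranes for full effect; tested at 10 µM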
eIF4H FP inh: inhibitors of RNA binding by human eIF4H; 290,000 tested, 0.94% active; eIF4H fluorescence polarization binding assay; Q15056; inhibition, % at 35 µM; AID 2012;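 active = 50% or more with normal probe brightness, or confirmed in later tests; inconclusive = above 50% with abnormal brightness, or retests that disagree; inactive = below 50% or failed in later tests; about a fifth of its hits are not listed in these tables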;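 also: calls also rest on retests at 20 µM and on dose response follow-up; 0% = protein and probe with vehicle and 100% = probe without protein; strong numbers were not always called active; many hits fall short of the cut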
eIF4H FP inh retest: further read-out of eIF4H FP inh, marked with its call; inhibition, %; compound at 20 µM; confirmation average;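 mean of two retest wells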
PABP polyA inh retest: second read-out of PABP polyA inh, no call of its own (marks repeat the call); inhibition, %; compound at 20 µM; confirmation repeats;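 mean of two retest wells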
MT1-MMP act inh RFP: recorded beside MT1-MMP act inh, whose call it bears; RFP signal change, %; measured here: RFP expression control read;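 0 = vehicle wells; hits needed this value within 50% of zero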
Numbers without * were called inactive; i = inactive; ? = inconclusive; . = not tested or not shown.

SMILES	Yeast UUG start	Env fusion inh	MT1-MMP act inh	MT1-MMP act inh RFP	CSC inhib	PABP polyA inh	Rce1 inhib	eIF4H FP inh	others
COC(=O)C1=CO[C@@H](C)[C@H]2CN3CCc4c([nH]c5ccccc45)[C@@H]3C[C@H]12	-13	10	-38	-38	5	.	.	.
C/C=C/CSc1nc2c(c(=O)[nH]c(=O)n2C)n1C(C)C	-7	-153	5	4	-6	5	i	-2
Cc1ccc(C(=O)NCC(=O)OCC(=O)Nc2ncc(C(F)(F)F)cc2Cl)cc1	.	8	-2	8	-5	0	i	26
COc1cc(NC(=O)CSc2ncnc3c2cnn3Cc2ccccc2)cc(OC)c1	7	34	-6	-12	16	-5	i	-10
Cc1cc(C)nc(NC(=O)CN2C(=O)c3ccccc3S2(=O)=O)n1	-20	.	0	5	1	.	i	.
O=C(Cc1ccsc1)Nc1ccccc1F	3	-12	-2	-2	.	5	i	-3
O=C(Nc1ccc(S(=O)(=O)N2CCCCC2)cc1)c1ccncc1	-19	.	10	-2	1	5	i	4
Nc1nc(-c2ccc3c(c2)NC(=O)CO3)cs1	-10	.	1	2	-13	27	i	-7
CCCc1nc(N)c(C#N)c(-c2cccnc2)c1CC	-36	22	1	0	-2	-1	i	-5
COc1ccc(NC(=O)CN(C)S(=O)(=O)c2ccc3c(c2)OCCO3)c2ncccc12	-15	?	2	-1	18	-7	i	-3
Cc1nc2ccccn2c1C(=O)NCCCN1CCOCC1	-13	.	-3	0	-5	21	i	14
CC1CCN(C(=O)Cn2cnc3c(cnn3C(C)(C)C)c2=O)CC1	.	-23	-1	-1	-4	-3	i	-2
CSc1n[nH]c(NCc2ccccc2)n1	-11	.	1	2	-2	-3	i	-10
CC(C)=NNc1nc(-c2ccccc2)cs1	.	-4	3	6	-4	12	i	5
O=c1c([N+](=O)[O-])cccn1Cc1ccccc1Cl	-9	-9	-6	2	0	44	i	-3
Cc1ccc(Nc2nnc(SCC(=O)Nc3cccc(S(=O)(=O)N4CCCCC4)c3)s2)cc1	.	12	3	-11	3	-8	i	-8
COc1ccc2[nH]cc(C(=O)N3CCCCC3)c(=O)c2c1	-15	-50	4	2	-17	?	i	-5
Cc1cccc(/C=C/C(=O)c2ccc(NC3=NCCCS3)cc2)c1	.	-13	-10	-11	43	0	i	-18
CC1CCCC(C)N1CCCNC(=O)Cn1cc2c(n1)CCCC2 (centres undefined)	-27	-87	1	2	-5	19	i	-1
O=C(Nc1ccc(S(=O)(=O)N2CCCCC2c2cccnc2)cc1)c1ccccc1F (centres undefined)	-20	-6	-4	-7	4	12	i	5
CC(C)CN(C(=O)c1cccc(S(=O)(=O)N2CCN(Cc3ccccc3)CC2)c1)C1CCS(=O)(=O)C1 (centres undefined)	7	6	-1	2	19	.	i	.
Cc1ccc(C(=O)N2CCCC(Nc3ccc(C(C)C)cc3)C2)cn1 (centres undefined)	3	-6	-3	-4	.	7	i	3
C[C@H]1COC(=O)CCC/C=C\C[C@H](CC(=O)N(CCO)Cc2ccccc2)C(=O)N1	-3	-21	-3	1	.	.	.	.
CCc1nnc2sc(-c3ccc(NC(=O)CSc4ccc(Cl)cc4)cc3)nn12	5	.	3	-2	-13	.	i	.
COc1cc(NC(=O)CN2C(=O)CSc3ccc(S(=O)(=O)N4CCCC4)cc32)cc(OC)c1	1	1	0	2	1	.	i	.
COc1ccc(NC(=O)CN(C)S(=O)(=O)c2ccc(Cl)cc2)cc1Cl	2	-25	8	-1	-2	3	i	-6
CCCNC(=O)C(Cc1ccc(I)cc1)NC(=O)C1CC1 (centres undefined)	-5	-40	1	-1	12	.	.	.
Nc1cc(S(=O)(=O)C(F)(F)F)ccc1C(=O)O	-22	.	2	3	-11	6	i	-3
CC(=O)OCC(=O)Nc1ccc(N=Nc2ccccc2)cc1	.	.	10	10	.	-7	i	-10
CCN1CCN(CCCNC(=O)CCC(=O)N2CC(C)Oc3ccc(C)cc32)CC1 (centres undefined)	-7	4	0	3	.	-10	i	-2
CCc1ccccc1NC(=O)CNC(=O)c1ccc(OCc2cn3ccccc3n2)cc1	-12	-15	-4	2	.	.	.	.
O=C(NCc1ccncc1)c1cc(S(=O)(=O)N2CCOCC2)c(Cl)cc1Cl	-10	3	0	-4	-12	.	i	.
O=[N+]([O-])c1ccc(N2CCN(c3ccccn3)CC2)c(Cl)c1	-17	1	2	-3	.	2	i	-11
CCOc1ccc2nc(SCC(=O)c3cccs3)sc2c1	-10	-300	4	-3	1	-2	i	-7
CC(C)(C)NC(=O)CSc1ncccc1-c1nc2ccccc2[nH]1	-15	11	-5	2	-9	0	i	7
Cc1ccc(C(=O)N/C(=C\c2ccc(F)cc2)C(=O)NCCN2CCOCC2)cc1	42	3	1	-2	.	-8	i	89	eIF4H FP inh retest=4;PABP polyA inh retest=24
CCCCc1ccc(NC(=O)N[C@H](C(=O)O)C(C)C)cc1	6	.	4	1	-6	-2	i	2
Cc1ccccc1NC(=O)c1ccccc1O	2	.	-7	-10	7	-8	i	-4
CC(C)(C)c1ccc(-c2nc(C#N)c(NCc3ccncc3)o2)cc1	-13	-119	-3	-6	34	5	i	10
O=C(CSc1nc2cc(S(=O)(=O)N3CCOCC3)ccc2o1)Nc1c(F)cccc1F	.	-4	-1	-2	4	4	i	6
O=C(O)c1cccc(NS(=O)(=O)c2ccc3nnn(O)c3c2)c1	-13	.	-2	0	-8	9	i	-14
Cn1c(=O)c2c(nc(SCC(=O)NCc3ccco3)n2C)n(C)c1=O	-11	-41	2	-1	-1	11	i	-7
COc1ccc(N(CC(=O)Nc2ccc3c(c2)OCO3)S(=O)(=O)c2ccc(C)cc2)cc1OC	-17	17	-6	-3	-3	2	i	-8
O=C(c1ccc(S(=O)(=O)NCc2ccco2)cc1)N1CCCC1	-13	-31	2	0	-5	9	i	2
CCOc1ccc(CN(C)C(=O)CCc2ccc(S(=O)(=O)N3CCCCCC3)cc2)cc1	6	65*	26	-23	.	.	.	.
Cc1cc(C)c2cc(CN(CCO)Cc3nnnn3Cc3ccc(F)cc3)c(=O)[nH]c2c1	-6	.	-1	-1	.	-2	i	4
COC(=O)c1sccc1NC(=O)Nc1cccc(C)c1C	0	25	-1	1	-9	6	i	11
CC(C)C(=O)N1CCN(c2nc(-c3ccc(Cl)cc3)cs2)CC1	.	23	-3	-15	17	6	.	2
COc1ccc(C(=O)NC(=O)N2CCCCC2)cc1	-5	.	11	7	0	-5	i	0
Cc1ccc(C)c(SCC(=O)OCC(=O)N2CC(C)OC(C)C2)c1 (centres undefined)	6	6	-3	4	6	3	i	-8
O=C(NCC[C@H]1CC[C@@H](NC(=O)C2CCOCC2)[C@@H](CO)O1)Nc1ccc(Cl)cc1	-9	?	-2	7	.	.	.	.
O=C(O)[C@@H]1CCCN(S(=O)(=O)c2cccc3cccnc23)C1	1	18	4	5	-11	.	.	.
Cn1c(=O)n(CC(=O)NCc2cccnc2)c2ccccc21	-19	-15	3	4	-6	5	i	-2
C#CCn1c(-c2ccccc2)ccc(C#N)c1=O	-12	-20	1	0	16	-4	i	4
O=c1cc[nH]c2c1ccc1cccnc12	-18	9	1	3	-2	.	i	.
CC(=O)c1c(O)cc(O)cc1CC(=O)O	-10	.	6	8	-4	18	i	23
O=C1CC(SC(=NCc2ccc3c(c2)OCO3)Nc2ccccc2)C(=O)N1c1ccccc1 (centres undefined)	-11	.	-3	-10	-2	8	i	-2
O=C1C=C(c2ccc(F)cc2OCc2ccccc2)C[C@@H](c2ccc3c(c2)OCO3)C1	-19	32	-8	-14	3	.	.	.
CCOc1ccccc1CN1CCNC(=O)C1CC(=O)N(C)CCC1CCOCC1 (centres undefined)	18	0	-3	-2	-7	-3	i	-6
O=CN(c1ccccc1)c1ccc2ccccc2c1	.	9	-2	0	-13	-13	i	-15
New compounds follow.
SMILES	Yeast UUG start	Env fusion inh	MT1-MMP act inh	MT1-MMP act inh RFP	CSC inhib	PABP polyA inh	Rce1 inhib	eIF4H FP inh	others
CC1CCCN(S(=O)(=O)c2ccc3[nH]c(=O)cc(C(=O)NCCCN4CCCCCC4)c3c2)C1 (centres undefined)	6	-4	1	3	.	.	.	.
CN(C)C(=O)COc1ccc(Oc2ccccc2)cc1	.	-6	0	1	-20	-1	i	1
COc1ccc(C(=O)N2CCCC(C(=O)N3CCCCCC3)C2)cc1 (centres undefined)	-1	-21	-1	4	-14	2	i	-1
O=C(COC(=O)CNC(=O)c1ccc(Cl)cc1Cl)NNC(=O)c1ccccc1F	-35	-6	4	5	-9	.	.	.
COc1ccc(S(=O)(=O)N(Cc2ccccc2)c2ccccc2C(=O)O)cc1	-15	8	-5	4	-3	14	i	-8
Cc1ccc(S(=O)(=O)NCCC(=O)OCC(=O)N(C)c2ccccc2)cc1	-1	-5	-4	2	-7	.	i	.
Cc1cc(NC(=O)COC(=O)c2cccc(S(=O)(=O)N3CCOCC3)c2)no1	-11	-1	1	3	.	7	i	12
CCc1ccccc1NC(=O)c1nnn(CC(=O)Nc2cccc(C)c2C)c1N	-24	.	2	-5	9	-2	i	1
CCOc1ccc(NC(=O)CN(C)C(=O)c2ccc(C)c(S(=O)(=O)N3CCCCC3)c2)cc1OCC	14	.	-2	-3	1	-6	i	-6
CCCNC(=S)Nc1c(C)n(C)n(-c2ccccc2)c1=O	.	7	2	2	-7	-7	i	-11
CCN1CCN(C(=O)C2CCN(S(=O)(=O)N3CCC4(CC3)OCCO4)CC2)CC1	-15	-9	0	4	-3	-4	i	-11

At a glance, 2 of the compounds above:
SMILES	Yeast UUG start	Env fusion inh	MT1-MMP act inh	MT1-MMP act inh RFP	CSC inhib	PABP polyA inh	Rce1 inhib	eIF4H FP inh	others
COc1ccc(C(=O)N2CCCC(C(=O)N3CCCCCC3)C2)cc1 (centres undefined)	-1	-21	-1	4	-14	2	i	-1
O=C(COC(=O)CNC(=O)c1ccc(Cl)cc1Cl)NNC(=O)c1ccccc1F	-35	-6	4	5	-9	.	.	.

In the list so far, nine contain fluorine:
SMILES	Yeast UUG start	Env fusion inh	MT1-MMP act inh	MT1-MMP act inh RFP	CSC inhib	PABP polyA inh	Rce1 inhib	eIF4H FP inh	others
Cc1ccc(C(=O)NCC(=O)OCC(=O)Nc2ncc(C(F)(F)F)cc2Cl)cc1	.	8	-2	8	-5	0	i	26
O=C(Cc1ccsc1)Nc1ccccc1F	3	-12	-2	-2	.	5	i	-3
O=C(Nc1ccc(S(=O)(=O)N2CCCCC2c2cccnc2)cc1)c1ccccc1F (centres undefined)	-20	-6	-4	-7	4	12	i	5
Nc1cc(S(=O)(=O)C(F)(F)F)ccc1C(=O)O	-22	.	2	3	-11	6	i	-3
Cc1ccc(C(=O)N/C(=C\c2ccc(F)cc2)C(=O)NCCN2CCOCC2)cc1	42	3	1	-2	.	-8	i	89	eIF4H FP inh retest=4;PABP polyA inh retest=24
O=C(CSc1nc2cc(S(=O)(=O)N3CCOCC3)ccc2o1)Nc1c(F)cccc1F	.	-4	-1	-2	4	4	i	6
Cc1cc(C)c2cc(CN(CCO)Cc3nnnn3Cc3ccc(F)cc3)c(=O)[nH]c2c1	-6	.	-1	-1	.	-2	i	4
O=C1C=C(c2ccc(F)cc2OCc2ccccc2)C[C@@H](c2ccc3c(c2)OCO3)C1	-19	32	-8	-14	3	.	.	.
O=C(COC(=O)CNC(=O)c1ccc(Cl)cc1Cl)NNC(=O)c1ccccc1F	-35	-6	4	5	-9	.	.	.

These rows are one share of the data; the hit share may differ from the screen's.
